Arbovirus inh – arbovirus infection inhibition; arbovirus infection cell-based antiviral screen; inhibition, % at 10 µM; 0.37% of 200,000 active; AID 1251;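 active = inhibition from about 30%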;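 also: bluetongue infection of BSR cells; cell survival read as ATP light after 72 h; 0% = infected wells without compound and 100% = uninfected wells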
Mtb growth – M. tuberculosis H37Rv growth inhibitors, H37Rv strain (AID 1626); M. tuberculosis H37Rv growth inhibition; higher % means a stronger effect; 0.95% of 220,000 active; one-dose inhibition, % at 10 µM; IC50 in µM for titrated hits;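 active = confirmed in a dose series; inconclusive = inhibition above 80% but not taken into the dose series; inactive = below 80% or under 30% at every dose of the series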;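 also: bacteria incubated seven days before Alamar blue readout; 0% = bacteria only wells and 100% = bacteria with antibiotic wells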
Mtb betalactam – beta-lactam sensitization of Mtb H37Rv. 0.27% of 330,000 active. inhibition, % at 25 µM. AID 434955. M. tuberculosis H37Rv growth with meropenem, percent inhibition; hits of this screen are not shown here;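 active = about 74% or more and at least 40 points above the plate without the antibiotic, then above 30% in a dose series; inconclusive = first-round hits that could not be retested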;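 also: growth measured after seven days incubation then overnight dye step; 0% = bacteria only wells and 100% = bacteria with antibiotic; twin plates without the antibiotic show which effects depend on it; some results filed as inactive read as strong as hits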
YopH inh – blocks Yersinia enterocolitica YopH tyrosine phosphatase; fluorescence Ex485/Em525; inhibition, %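 (about 10 µM by stock and volumes)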; 0.16% of 140,000 active; AID 898;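 active = inhibition of 50% or more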;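 also: controls were vehicle for no effect and minimum signal wells for full effect; inactives centre near -20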
RecA splice inh – Mtb RecA intein splicing inhibition; 0.75% of 290,000 active; cell-free RecA intein splicing, fluorescence; P9WHJ3; inhibition, %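 (about 9 µM by stock and volumes)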; AID 2221; in the data active = inhibition above about 30%; inconclusive = no clear call, values can overlap the other calls;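 also: 0% = vehicle wells and 100% = reference inhibitor control wells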
Target sequence (P9WHJ3 whole entry, looked up, canonical isoform): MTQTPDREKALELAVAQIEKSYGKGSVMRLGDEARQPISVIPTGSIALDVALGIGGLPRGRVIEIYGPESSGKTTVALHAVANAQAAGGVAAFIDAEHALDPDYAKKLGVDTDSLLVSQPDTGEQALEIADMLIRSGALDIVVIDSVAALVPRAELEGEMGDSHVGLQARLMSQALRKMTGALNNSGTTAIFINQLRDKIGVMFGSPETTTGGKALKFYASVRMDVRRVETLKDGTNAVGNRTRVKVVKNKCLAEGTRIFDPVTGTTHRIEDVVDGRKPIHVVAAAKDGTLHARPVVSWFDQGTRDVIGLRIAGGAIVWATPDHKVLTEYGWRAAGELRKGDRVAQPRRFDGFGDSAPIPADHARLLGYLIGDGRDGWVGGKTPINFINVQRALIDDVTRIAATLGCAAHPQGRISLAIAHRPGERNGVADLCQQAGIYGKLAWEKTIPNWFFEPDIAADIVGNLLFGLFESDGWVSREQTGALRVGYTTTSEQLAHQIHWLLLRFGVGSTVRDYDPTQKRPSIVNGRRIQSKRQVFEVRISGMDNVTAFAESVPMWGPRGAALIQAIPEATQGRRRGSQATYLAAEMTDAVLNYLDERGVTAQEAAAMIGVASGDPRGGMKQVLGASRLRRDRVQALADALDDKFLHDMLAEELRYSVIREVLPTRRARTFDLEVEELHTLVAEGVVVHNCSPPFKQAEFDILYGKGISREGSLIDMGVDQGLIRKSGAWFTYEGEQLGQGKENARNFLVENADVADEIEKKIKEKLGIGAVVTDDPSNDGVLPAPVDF
* = called active by the depositor; & = joins results of further samples.

For COc1ccc(C)cc1NC(=O)c1sc2nc(C)nc(N3CCOCC3)c2c1C the results were Mtb betalactam 4 and RecA splice inh -0.6.
`COc1ccc(CN2CCC(C)CC2)cc1OCc1ccccc1` gave Mtb betalactam -5 and RecA splice inh 1.7.
For COc1ccc(/C=N\NS(=O)(=O)c2ccc(Br)cc2)cc1COc1ccccc1[N+](=O)[O-] the results were Arbovirus inh -7, Mtb growth 6%, Mtb betalactam -6, YopH inh -38 and RecA splice inh 0.8.
For O=c1ccc2cc(S(=O)(=O)N3CCN(c4ccccc4F)CC3)ccc2o1 the results were Mtb betalactam 0 and RecA splice inh -0.2.
Cc1nc2cc(NC(=O)Nc3ccccc3Cl)ccc2n1C was read as Arbovirus inh -9, Mtb growth 0%, Mtb betalactam 7 and RecA splice inh -0.6.
`CN(C)c1ccnc2sc(C(=O)c3ccc(Br)cc3)c(N)c12` gave Arbovirus inh -6, Mtb growth 2%, Mtb betalactam -5 and RecA splice inh -0.4.
CC(=O)c1cccc(NC(=O)CN2C(=O)c3cccnc3Oc3ccc(Cl)cc32)c1 was read as Mtb betalactam inconclusive and RecA splice inh 3.2.
`O=C(NCc1ccccn1)c1ccc(Cl)c(S(=O)(=O)N2CCOCC2)c1` gave Mtb betalactam -15 and RecA splice inh -3.5.
Screening COC(=O)CCCC1=CC2=CC(=O)C(C)(OC(=O)c3cccs3)C(=O)C2=CN1c1ccccc1 (stereo not given) returned Mtb growth -6%, Mtb betalactam -1 and RecA splice inh -1.3.
Screening Cc1ccc(OCC(=O)Nc2cnn(CCCC(=O)O)c2)c([N+](=O)[O-])c1 returned Arbovirus inh 3, Mtb growth 7%, Mtb betalactam 2 and RecA splice inh -3.2.
O=C(Cn1ccc(C(F)(F)F)n1)N/N=C/c1ccc(N2CCOCC2)cc1 was read as Arbovirus inh -1, Mtb growth 0%, Mtb betalactam 0 and RecA splice inh 0.7.
Screening CC(C(=O)NC1CCCC1)N(C(=O)c1snc(C(N)=O)c1N)c1ccc2c(c1)OCCO2 (stereo not given) returned Arbovirus inh -4, Mtb growth 0%, Mtb betalactam -2, YopH inh 0 and RecA splice inh -3.7.
N#C/C(=C\c1ccc(F)cc1)C(=O)NC1CCS(=O)(=O)C1 (stereo not given) was read as Mtb betalactam -4 and RecA splice inh -3.1.
For Cc1ccc(S(=O)(=O)Nc2nc3ccc(S(=O)(=O)N4CCCC4)cc3s2)cc1 the results were Arbovirus inh -4, Mtb growth -5%, Mtb betalactam -5, YopH inh 30 and RecA splice inh -1.6.
For COc1ccc(C(=O)NNC(=O)c2cc3ccccc3cc2O)cc1 the results were Mtb betalactam 7 and RecA splice inh 0.9.
`Cn1ncc(C#N)c1NC(=O)C1CC(c2ccc(Cl)cc2)=NO1` (stereo not given) gave Arbovirus inh -2, Mtb growth 6%, Mtb betalactam -2, YopH inh -11 and RecA splice inh 0.4.
Screening Cc1nonc1OCCCNc1ccc([N+](=O)[O-])cc1Cl returned Arbovirus inh 9, Mtb growth 6%, Mtb betalactam 0 and RecA splice inh -2.8.
Screening CN(Cc1nccn1C)C(=O)c1cc(COc2cccc(C(F)(F)F)c2)on1 returned Mtb betalactam 15 and RecA splice inh -0.1.
`C=C(C)c1cccc(C(C)(C)NC(=O)N2CCC(C(N)=O)CC2)c1` gave Arbovirus inh 17, Mtb growth 1%, Mtb betalactam -6 and RecA splice inh -1.3.
CSCCC(NC(=O)c1ccccc1)C(=O)OCC(=O)N(C)CCC#N (stereo not given) was read as Arbovirus inh 0, Mtb growth 1%, Mtb betalactam -6 and RecA splice inh -3.8.
`CC(=O)c1c[nH]c(C(=O)NC2CCCCCC2)c1` gave Mtb betalactam -3 and RecA splice inh 1.1.
For CCc1nnc(NC(=O)CC(=O)Nc2ccccc2C(=O)O)s1 the results were Arbovirus inh 8, Mtb growth -10%, Mtb betalactam -1, YopH inh -20 and RecA splice inh 1.7.
O=C(NCCC1CCCCN1S(=O)(=O)c1ccc(F)cc1)C(=O)NCc1ccccn1 (stereo not given) was read as Mtb betalactam 3 and RecA splice inh -1.6.
`Cc1cc(C(=O)NC(C)c2ccncc2)cs1` (stereo not given) gave Arbovirus inh -6, Mtb growth -4%, YopH inh -13 and RecA splice inh -0.4.

Gathered by group, those above containing a COOH group
Screening Cc1ccc(OCC(=O)Nc2cnn(CCCC(=O)O)c2)c([N+](=O)[O-])c1 returned Arbovirus inh 3, Mtb growth 7%, Mtb betalactam 2 and RecA splice inh -3.2.
For CCc1nnc(NC(=O)CC(=O)Nc2ccccc2C(=O)O)s1 the results were Arbovirus inh 8, Mtb growth -10%, Mtb betalactam -1, YopH inh -20 and RecA splice inh 1.7.

Further records follow:
For CCCN(CC(=O)Nc1ccccc1C)C(=O)COc1c(Cl)cccc1Cl the results were Mtb betalactam -6 and RecA splice inh 0.3.
For CN(C)c1cccc2c(/C=N/O)ccc(N(C)C)c12 the results were Arbovirus inh 18, Mtb growth -4%, Mtb betalactam -2 and RecA splice inh -2.2.
`CCCC(CCC)C(=O)O` gave Mtb growth 15%, Mtb betalactam -3&-2 and RecA splice inh 0.8.
`O=C(Nc1ccccc1)c1cc([N+](=O)[O-])ccc1NCc1cccnc1` gave Arbovirus inh -13, Mtb growth 2%, Mtb betalactam 11, YopH inh 2 and RecA splice inh 6.0.
O=C(COC(=O)c1cc[n+]([O-])cc1)Nc1ccc(SC(F)F)cc1 was read as Mtb growth -3%, Mtb betalactam 6 and RecA splice inh 0.1.
COC(=O)CCCC(=O)N1CCC(n2nccc2NC(=O)CCOc2ccccc2)CC1 was read as Mtb betalactam -8 and RecA splice inh -2.1.
For Cc1cc(C)c(S(=O)(=O)Nc2ccnc(-c3cccnc3)n2)c(C)c1 the results were Arbovirus inh 24, Mtb growth -5%, Mtb betalactam -2 and RecA splice inh 0.7.
For Cc1cc(C(=O)NNC(=S)NCc2ccco2)nn1C the results were Arbovirus inh 12, Mtb growth 10%, Mtb betalactam -9 and RecA splice inh -5.9.
For Cc1ccc(CNc2nc(N)c([N+](=O)[O-])c(Nc3cccc(F)c3)n2)cc1 the results were Arbovirus inh 4, Mtb growth -1%, Mtb betalactam 4, YopH inh -23 and RecA splice inh 0.4.
`O=C(CSc1nnc(CNc2ccc(F)cc2)o1)N1CCCc2ccccc21` gave Arbovirus inh -8, Mtb growth 7%, Mtb betalactam 9, YopH inh -30 and RecA splice inh 4.0.
`Nc1nc(SCc2nc3scc(-c4ccccc4)c3c(=O)[nH]2)n[nH]1` gave Arbovirus inh 7, Mtb growth 0%, Mtb betalactam 28, YopH inh -36 and RecA splice inh -1.3.
`CCOC(=O)c1c(-c2ccccc2)oc2ccc(O)c(CN3CCOCC3)c12` gave Arbovirus inh 12, Mtb growth -5%, Mtb betalactam 88, YopH inh -31 and RecA splice inh 0.5.

Four records picked at random from those above, as already listed:
For CCCN(CC(=O)Nc1ccccc1C)C(=O)COc1c(Cl)cccc1Cl the results were Mtb betalactam -6 and RecA splice inh 0.3.
For Cc1cc(C(=O)NNC(=S)NCc2ccco2)nn1C the results were Arbovirus inh 12, Mtb growth 10%, Mtb betalactam -9 and RecA splice inh -5.9.
`Nc1nc(SCc2nc3scc(-c4ccccc4)c3c(=O)[nH]2)n[nH]1` gave Arbovirus inh 7, Mtb growth 0%, Mtb betalactam 28, YopH inh -36 and RecA splice inh -1.3.
COC(=O)CCCC(=O)N1CCC(n2nccc2NC(=O)CCOc2ccccc2)CC1 was read as Mtb betalactam -8 and RecA splice inh -2.1.

Going on with the list:
For N#C/C(=N\Nc1c(Cl)cccc1Cl)C(=O)NN the results were Arbovirus inh -20, Mtb growth 1%, Mtb betalactam 1, YopH inh -18 and RecA splice inh 17.
Cc1ccc(NC(=O)c2ccc(NCCCN3CCC(C)CC3)c([N+](=O)[O-])c2)c(C)c1 was read as Mtb betalactam -7 and RecA splice inh 1.9.
For COc1cc(NC(=O)COc2cc(C)cc3oc(=O)c(C)c(C)c23)cc(OC)c1OC the results were Mtb betalactam 4 and RecA splice inh -1.3.
O=[n+]1c2c(n([O-])c3c1CCC3)CCCC2 was read as Arbovirus inh -3, Mtb growth -5%, Mtb betalactam -10, YopH inh -29 and RecA splice inh 1.6.
For CCCc1c(C)nc2ccccc2c1SCCC#N the results were Arbovirus inh 28, Mtb growth 3%, Mtb betalactam -3 and YopH inh -11.
Screening O=C(/C=C/c1ccco1)N(Cc1ccccc1)C1CCS(=O)(=O)C1 (stereo not given) returned Mtb growth -3%, Mtb betalactam -6 and RecA splice inh -0.2.
Cc1cc(=O)n2[nH]c(C)cc2n1 was read as Arbovirus inh -3, Mtb growth 6%, Mtb betalactam 1 and RecA splice inh -3.0.
CN(C)c1cccc2c(C#N)ccc(N(C)C)c12 was read as Arbovirus inh -4, Mtb growth 8%, Mtb betalactam 5 and RecA splice inh -5.1.
`S=C1NC(c2cccs2)=CC(c2ccc(Br)cc2)N1` (stereo not given) gave Arbovirus inh -3, Mtb growth 13%, Mtb betalactam 3, YopH inh -19 and RecA splice inh 5.7.
`O=C(COC(=O)C1CC(=O)N(Cc2ccccc2)C1)c1ccc(Br)cc1` (stereo not given) gave Arbovirus inh 2, Mtb growth 0%, Mtb betalactam 3, YopH inh -24 and RecA splice inh -1.5.
Screening O=C(c1ccc(Cl)cc1)C1CCCN(C2CCSCC2)C1 (stereo not given) returned Arbovirus inh -4, Mtb growth -1%, Mtb betalactam -6 and RecA splice inh -0.5.
Screening CN(C)C(=O)N1CCC(C(=O)NCc2ccccc2Cl)CC1 returned Arbovirus inh -2, Mtb growth -8%, Mtb betalactam -1 and YopH inh -30.
CC1CCCCN1S(=O)(=O)c1ccc(N(C(=O)c2cnccn2)C(C(=O)NC2CCCC2)c2cccs2)cc1 (stereo not given) was read as Arbovirus inh 0, Mtb growth -3%, Mtb betalactam 2, YopH inh -22 and RecA splice inh 4.4.
For CCn1c(SCC(=O)N/N=C/C=C\c2ccco2)nc2ccccc21 the results were Arbovirus inh -6, Mtb growth -3%, Mtb betalactam -4, YopH inh -30 and RecA splice inh 8.2.
Screening CCN1CCN(CC(=O)Nc2ccc(C(C)=O)cc2)CC1 returned Mtb betalactam 9 and RecA splice inh -5.4.
For O=C(O)c1ccccc1C(=O)c1ccc2c(c1)N(Cc1ccc(Cl)c(Cl)c1)C(=O)CO2 the results were Arbovirus inh 8, Mtb growth 3%, Mtb betalactam -6 and RecA splice inh 0.7.
CC(=O)c1ccc(OC(C)C)c(CC(C(N)=O)C(N)=O)c1 was read as Arbovirus inh 1, Mtb growth -1%, Mtb betalactam -1, YopH inh 5 and RecA splice inh -0.5.
Screening CC1CC(C)CN(C(=O)CSCC(=O)Nc2nc(-c3cccs3)cs2)C1 (stereo not given) returned Arbovirus inh 20, Mtb betalactam 0, YopH inh 14 and RecA splice inh -3.1.
For O=C1c2ccccc2C(=O)N1CCC1=CCCCC1 the results were Arbovirus inh 15, Mtb growth -5%, Mtb betalactam 0, YopH inh -17 and RecA splice inh -1.6.
`CN(C)c1ccc(C(=O)C(=O)c2ccccc2)cc1` gave Mtb betalactam 2 and RecA splice inh 0.7.
For Cc1csc(SCC(=O)NC(=O)NCc2ccccc2)n1 the results were Arbovirus inh -5, Mtb growth 3%, Mtb betalactam -3, YopH inh -35 and RecA splice inh 0.6.
`O=[N+]([O-])c1ccc(Sc2n[nH]c(-c3ccc(Cl)cc3Cl)n2)nc1` gave Arbovirus inh 21, Mtb growth 12%, Mtb betalactam 56, YopH inh -6 and RecA splice inh 0.9.
`CN(C)S(=O)(=O)NCc1ccc2c(c1)OCO2` gave Arbovirus inh 0, Mtb growth -7%, Mtb betalactam -2, YopH inh -4 and RecA splice inh -1.0.
Screening NC(=S)N/N=C/c1ccc(Br)o1 returned Arbovirus inh 5, Mtb growth -8%, Mtb betalactam 96 and RecA splice inh -0.4.
O=C(CN1C2=NCCN2c2ccccc21)c1ccc(Br)cc1 was read as Arbovirus inh -14, Mtb growth -9%, Mtb betalactam -9, YopH inh 0 and RecA splice inh -2.3.
For NC(=O)C1CCN(C(=O)CSc2nc3ccccc3o2)CC1 the results were Arbovirus inh 5, YopH inh 18 and RecA splice inh -1.2.
Cc1ccc(N/C=C/C(=O)c2sc(-c3ccccc3)nc2C)cc1 was read as Arbovirus inh -9, Mtb growth 4%, Mtb betalactam 47, YopH inh -26 and RecA splice inh 1.8.
Screening O=C(CSc1nnc(NC(=O)c2c(F)cccc2F)s1)Nc1ccccc1F returned Mtb betalactam -4 and RecA splice inh -0.5.
`COc1ccc(C2CC(c3cccc(OC)c3OC)n3nnnc3N2)cc1` (stereo not given) gave Arbovirus inh 1, Mtb growth -10%, Mtb betalactam 12, YopH inh -26 and RecA splice inh -3.3.
COC(=O)C1(S(=O)(=O)c2ccc(C)cc2)CCOCC1 was read as Arbovirus inh 5, Mtb growth -9%, Mtb betalactam 0, YopH inh -47 and RecA splice inh -3.1.
O=C(COc1ccc(Cl)cc1)c1ccc(O)cc1O was read as Mtb growth 7%, Mtb betalactam 10 and RecA splice inh -0.6.

Some of the compounds tested; count on the stated rates, not on these rows.
